YopH inh – YopH tyrosine phosphatase inhibitors, primary screen, biochemical, fluorescence Ex485/Em525 | inhibition, %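 (about 10 µM by stock and volumes)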 | YopH tyrosine phosphatase [Yersinia enterocolitica] | actives 0.16% (n = 140,000);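 active = inhibition of 50% or more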;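 note: controls were vehicle for no effect and minimum signal wells for full effect; inactives centre near -20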
Mtb growth – M. tuberculosis H37Rv growth inhibitors, H37Rv strain (AID 1626). M. tuberculosis H37Rv growth inhibition; higher % means a stronger effect. inhibition, % at 10 µM, or IC50 in µM where a hit was titrated. actives 0.95% (n = 220,000);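 active = confirmed in a dose series; inconclusive = inhibition above 80% but not taken into the dose series; inactive = below 80% or under 30% at every dose of the series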;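 note: bacteria incubated seven days before Alamar blue readout; 0% = bacteria only wells and 100% = bacteria with antibiotic wells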
Mtb betalactam – beta-lactam sensitization of Mtb H37Rv, H37Rv. inhibition, % at 25 µM. actives 0.27% (n = 330,000). AID 434955, 2010. M. tuberculosis H37Rv growth with meropenem, percent inhibition; hits of this screen are not shown here;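 active = about 74% or more and at least 40 points above the plate without the antibiotic, then above 30% in a dose series; inconclusive = first-round hits that could not be retested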;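 note: growth measured after seven days incubation then overnight dye step; 0% = bacteria only wells and 100% = bacteria with antibiotic; twin plates without the antibiotic show which effects depend on it; some results filed as inactive read as strong as hits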
RecA splice inh – Mtb RecA intein splicing inhibitors, primary screen, biochemical, fluorescence, HTS. Protein RecA (Mycobacterium tuberculosis (strain ATCC 25618 / H37Rv)), P9WHJ3. cell-free RecA intein splicing. inhibition, %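 (about 9 µM by stock and volumes)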. actives 0.75% (n = 290,000). AID 2221, 2009; in the data active = inhibition above about 30%; inconclusive = no clear call, values can overlap the other calls;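 note: 0% = vehicle wells and 100% = reference inhibitor control wells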
Target sequence (P9WHJ3 whole entry, looked up, canonical isoform): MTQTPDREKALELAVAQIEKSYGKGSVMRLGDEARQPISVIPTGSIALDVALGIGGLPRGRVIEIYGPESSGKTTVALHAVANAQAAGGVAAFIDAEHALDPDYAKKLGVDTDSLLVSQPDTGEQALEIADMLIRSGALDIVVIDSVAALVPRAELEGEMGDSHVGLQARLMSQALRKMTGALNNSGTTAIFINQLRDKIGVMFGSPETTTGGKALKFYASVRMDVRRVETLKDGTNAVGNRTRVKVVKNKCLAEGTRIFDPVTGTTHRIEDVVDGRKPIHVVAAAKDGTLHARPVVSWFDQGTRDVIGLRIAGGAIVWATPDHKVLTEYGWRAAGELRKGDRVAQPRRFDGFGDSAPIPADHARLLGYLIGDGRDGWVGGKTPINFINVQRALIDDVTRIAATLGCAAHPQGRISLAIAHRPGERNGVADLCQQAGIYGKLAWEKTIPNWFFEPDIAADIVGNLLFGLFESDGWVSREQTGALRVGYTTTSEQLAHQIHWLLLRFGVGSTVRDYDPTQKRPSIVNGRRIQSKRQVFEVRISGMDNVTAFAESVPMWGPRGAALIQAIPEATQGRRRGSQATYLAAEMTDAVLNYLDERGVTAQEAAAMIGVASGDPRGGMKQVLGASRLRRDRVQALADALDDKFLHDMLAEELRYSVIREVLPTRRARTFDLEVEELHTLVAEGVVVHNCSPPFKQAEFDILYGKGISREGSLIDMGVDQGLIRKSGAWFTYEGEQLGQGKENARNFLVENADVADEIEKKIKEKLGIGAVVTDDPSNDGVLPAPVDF
Arbovirus anti – antivirals against arbovirus infection, primary screen, cell-based, full library, 10K replicate subset; arbovirus infection cell-based antiviral screen; inhibition, % at 10 µM; actives 0.37% (n = 200,000); AID 1251, 2008;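 active = inhibition from about 30%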;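 note: bluetongue infection of BSR cells; cell survival read as ATP light after 72 h; 0% = infected wells without compound and 100% = uninfected wells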
Arbovirus anti repeat – also measured in Arbovirus anti; calls as there; inhibition, %; measured here: 10K subset replicate screen; many hits read low in the repeat;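 first of two repeat runs on a subset; 0% = infected and 100% = uninfected wells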
Numbers without * were called inactive; ? = inconclusive; . = not tested or not shown. Some of the compounds tested; count on the stated rates, not on these rows.

SMILES	YopH inh	Mtb growth	Mtb betalactam	RecA splice inh	Arbovirus anti	others
CC(C)C(NC(=O)c1ccco1)C(=O)NC1CCCCCC1 (stereo unspecified)	.	.	-6	-0.8	.
CCOC(=O)N1CCC(N2C(=O)c3ccccc3C2Nc2c(C)cccc2C)CC1 (stereo unspecified)	-40	.	3	14	0
COc1ccc(NC(=O)CN(Cc2ccccc2)S(C)(=O)=O)cc1OC	-9	2%	9	3.8	1
Cc1cc(C)cc(NC(=O)C(=O)NCCCN2CCOCC2)c1	.	0%	-2	-3.5	9
Cc1cccc(NC(=S)N(CCN(C)C)C(C)c2ccccn2)c1 (stereo unspecified)	-12	2%	0	-2.9	24
CSCc1nnc(NC(=O)c2ccc(S(=O)(=O)N(CC(C)C)CC(C)C)cc2)o1	-9	.	.	2.4	-21
CCc1ccccc1NS(=O)(=O)c1ccc2c(c1)NC(=O)CC(=O)N2	-2	-7%	7	-0.1	9
CN(Cc1cccc(Cl)c1)C(=O)C1CCN(C(=O)Nc2ccccc2)CC1	.	.	-10	0.4	.
O=S(=O)(NC1=NCCCCC1)c1ccc(Cl)cc1	.	0%	2	0.2	16
c1coc(-c2nc3c([nH]2)CCc2nonc2-3)c1	-19	-6%	-1	0.8	4
O=C(Nc1ccccc1C(=O)Nc1ccccc1C(=O)O)c1ccccc1	.	.	8	-1.4	.
CCCCNC(=O)CCC(=O)N1CCN(C(c2ccccc2)c2ccccc2)CC1	.	.	-3	2.1	.
O=C(COC(=O)C1CC1)Nc1ccc2[nH]c(=O)[nH]c2c1	.	1%	5	0.1	3
COc1ccc(/C=C/C(=O)NCCc2ccc(OC)c(OC)c2)cc1	-24	7%	-5	2.8	-1
CC(C)NC(=O)CN(C)S(=O)(=O)c1ccc(F)cc1	-32	-2%	-12	-1.9	-1
CC(=O)c1c(COC(=O)c2ccccc2)nc2ccccc2[n+]1[O-]	-22	-7%	6	5.9	2
Clc1ccc(CNC23CN4CN(CN(C4)C2)C3)c(Cl)c1	-19	-2%	-6	-2.4	1
CN(C)Cc1cc(C(C)(C)c2cc(CN(C)C)c(O)c(CN(C)C)c2)cc(CN(C)C)c1O	-21	0%	2	.	-18
O=C(c1ccco1)N1CCN(C(=S)Nc2ccccc2C(F)(F)F)CC1	.	.	3	-4.1	.
CC(C)Sc1nc2c(c(=O)[nH]c(=O)n2C)n1CC(O)COc1ccccc1 (stereo unspecified)	.	2%	-2	0.9	7
Cc1ccc(N(CC(=O)N/N=C/c2cccnc2)S(=O)(=O)c2ccccc2)cc1	.	12%	-9	1.4	0
O=C(CSc1nnc(CNc2ccc(F)cc2)n1Cc1ccco1)N1CCCC1	-36	0%	-8	0.9	9
CCCCCc1nnc(N)s1	-1	2%	-4	-3.5	9
COc1ccc(CNC(=O)Cn2c(=O)n(CCC(=O)N3CCCCC3)c(=O)c3sccc32)cc1	.	.	0	-1.6	.
CCC(c1nnnn1Cc1ccc2c(c1)OCO2)N1CCN(c2ccc(OC)cc2)CC1 (stereo unspecified)	-28	10%	70	.	-3
CCN(CC)C(=O)CSc1nc(N)c(C#N)c(-c2cccs2)c1C#N	-40	1%	-23	1.0	-3
CCN(Cc1ccccc1)C(=O)Cn1c(=O)oc2ccccc21	.	-9%	-8	-5.9	14
COCCNc1nc2c(c(=O)n(C)c(=O)n2C)n1Cc1cccc(C(F)(F)F)c1	-5	1%	-12	-1.2	9
OCc1nc2ccccc2n1CC(O)COc1ccccc1 (stereo unspecified)	-9	-5%	4	2.5	4
COc1ccc(-c2cc(-c3cccnc3)c(C#N)c(N)n2)cc1	.	-3%	9	-8.4	.
O=C(Nc1nc(-c2ccccn2)cs1)C1COc2ccccc2O1 (stereo unspecified)	-27	?	90	.	-22	Arbovirus anti repeat=-12
Cc1ncc([N+](=O)[O-])n1CCOC(=O)c1ccccc1	-1	-1%	5	-1.1	5
O=C(NCc1ccccn1)c1cc(-c2ccccc2)on1	37	-12%	0	1.7	6
COc1ccc(-c2noc(CCC(=O)N3CCC(C)CC3)n2)cc1	-11	5%	-2	3.3	9
CCNC(=O)CC1C(=O)N(c2ccc(F)cc2)C(=O)N1CCc1sccc1C (stereo unspecified)	.	-7%	3	.	5
O=C(CSc1nc2ccccc2c(=O)n1CCCN1CCOCC1)Nc1cccc(S(=O)(=O)N2CCCCCC2)c1	-23	11%	14	2.0	-1
O=C(NC(=S)N1CCN(C2CCCCC2)CC1)c1ccccc1	.	-4%	5	11	1
Clc1ccc2oc(-c3ccccn3)nc2c1	-2	6%	-10	-3.1	-4
CN1CCN(C(=O)c2cc(COc3ccc(F)cc3Cl)on2)CC1c1ccccc1 (stereo unspecified)	.	13%	17	1.1	-7
Cc1ccc(C)c(-n2cc(CNC(C)Cn3cncn3)c(-c3ccccc3)n2)c1 (stereo unspecified)	.	-1%	2	2.1	.
COC(=O)CN1C(=O)N/C(=C/c2cc(Cl)c(OC)c(OC)c2)C1=O	.	-4%	-5	1.9	-2
O=c1[nH]c(-c2ccc(F)cc2)nc2c1sc(=S)n2-c1ccccc1	-5	8%	-4	-1.6	19
O=C(Nc1cccnc1)c1ccc(Oc2ccccc2)cc1	1	2%	6	0.8	-21
O=S(=O)(c1ccccc1)N1CCN(c2ccnc3cc(Cl)ccc23)CC1	.	10%	9	7.4	5
CCN(CC)S(=O)(=O)c1ccc(C(=O)OCn2c(SC)nnc(C)c2=O)cc1	-26	-2%	4	6.5	1

At a glance, part of the list above.
SMILES	YopH inh	Mtb growth	Mtb betalactam	RecA splice inh	Arbovirus anti	others
Clc1ccc2oc(-c3ccccn3)nc2c1	-2	6%	-10	-3.1	-4
CN1CCN(C(=O)c2cc(COc3ccc(F)cc3Cl)on2)CC1c1ccccc1 (stereo unspecified)	.	13%	17	1.1	-7
Cc1ccc(C)c(-n2cc(CNC(C)Cn3cncn3)c(-c3ccccc3)n2)c1 (stereo unspecified)	.	-1%	2	2.1	.
COC(=O)CN1C(=O)N/C(=C/c2cc(Cl)c(OC)c(OC)c2)C1=O	.	-4%	-5	1.9	-2
O=c1[nH]c(-c2ccc(F)cc2)nc2c1sc(=S)n2-c1ccccc1	-5	8%	-4	-1.6	19
O=C(Nc1cccnc1)c1ccc(Oc2ccccc2)cc1	1	2%	6	0.8	-21

Other compounds:
SMILES	YopH inh	Mtb growth	Mtb betalactam	RecA splice inh	Arbovirus anti	others
COc1ccc(NC(=O)c2ccc([N+](=O)[O-])o2)cc1	.	.	3	-0.8	.
CC(C)c1ccc(-c2nnn(Cc3nc4ccccc4s3)n2)cc1	-30	-5%	?	1.7	10
COCCOC(=O)c1c(C)oc2cc(Br)c(OCC(N)=O)cc12	-11	-4%	-3	-3.5	-8
Cc1nc2ccccc2c2c1C(=O)N(C(C)C)C2=O	13	-19%	-7	41*	0
CN(C)c1ccc(/C=N/n2c(-c3ccccc3Br)n[nH]c2=S)cc1	.	0%	-1	-1.3	.
Cc1cc(C)cc(NC(=O)C(c2ccccc2)N2CCCC2)c1 (stereo unspecified)	-33	7%	2	0.2	-3
Cc1ccc(OCC(=O)N2CCN(S(=O)(=O)c3ccc(Cl)cc3)CC2)c([N+](=O)[O-])n1	-24	-3%	1	1.0	-2
CCOc1ccc(N2C(=O)c3cccnc3C2Nc2ccc(C)c(C)c2)cc1 (stereo unspecified)	-33	14%	4	.	0
Cc1ccc(Cl)c(OCC(=O)OCC(=O)NC2CCCc3ccccc32)c1 (stereo unspecified)	-24	-6%	3	0.6	-3
COc1cc(CNCCc2c[nH]c3ccccc23)ccc1OCc1ccc(F)cc1	-12	?	99	2.9	-42
Cc1cccc(-n2c(C)cc(C(=S)N3CCOCC3)c2C)c1C	.	8%	0	5.8	6
CC1CCN(C(=O)/C(=C\c2ccccc2F)NC(=O)c2ccccc2)CC1	.	.	0	-0.6	.
CC(OC(=O)Cc1c(F)cccc1Cl)C(=O)NCCC1=CCCCC1 (stereo unspecified)	-23	6%	-9	3.1	-6
COC(=O)c1ccc(S(=O)(=O)N2Cc3ccccc3C2)cc1	.	10%	-3	0.1	17
N#CCC(=O)N/N=C/c1cc([N+](=O)[O-])ccc1N1CCOCC1	.	0%	-11	-0.9	7

Three structures already listed, arranged by length of the SMILES, ascending.
SMILES	YopH inh	Mtb growth	Mtb betalactam	RecA splice inh	Arbovirus anti	others
CC(OC(=O)Cc1c(F)cccc1Cl)C(=O)NCCC1=CCCCC1 (stereo unspecified)	-23	6%	-9	3.1	-6
COc1cc(CNCCc2c[nH]c3ccccc23)ccc1OCc1ccc(F)cc1	-12	?	99	2.9	-42
CC1CCN(C(=O)/C(=C\c2ccccc2F)NC(=O)c2ccccc2)CC1	.	.	0	-0.6	.

(list continues)
SMILES	YopH inh	Mtb growth	Mtb betalactam	RecA splice inh	Arbovirus anti	others
CN(C)/N=C1\CCS(=O)(=O)c2sccc21	.	4%	4	-4.7	-2
C/C=C/c1ccc(OCCCCN2CC(C)CC(C)C2)c(OC)c1 (stereo unspecified)	.	-6%	-10	-1.9	-2
CCOc1ccc(-c2nc(N)ncc2Oc2ccccc2Br)c(O)c1	-9	-14%	7	5.9	-15
CN(C)C(=O)Nc1cccc(OC(=O)N(C)C)c1	2	0%	-3	6.8	2
CN1C(=O)CC(N2CCN(CC(N)=O)CC2)C1=O (stereo unspecified)	-27	-1%	-3	-0.3	1
O=C(/C=C/c1c(F)cccc1Cl)c1ccc(F)cc1	1	1%	100	0.3	-31
COc1ccc(-c2cnn3cc(-c4cccc(Cl)c4)cnc23)cc1	.	.	2	-1.5	.
O=C(Nc1ccon1)Nc1cccc(Cl)c1Cl	.	.	5	1.4	.
S=C(NCc1ccco1)Nc1ccc(Br)cc1Cl	.	5%	1	3.9	8
CC(=NCCc1ccccc1)c1c(O)[nH]c(=O)[nH]c1=O	.	-3%	-7	-1.0	.
O=C(NCCc1cccc(F)c1)/C(=C/c1cccnc1)NC(=O)c1ccccc1	-15	3%	-2	2.5	3
O=C(COC(=O)CSc1nnc(-c2ccc(Cl)cc2)o1)Nc1cc(Cl)ccc1Cl	.	-2%	2	1.2	.
COc1cc(/C=N/Nc2ncc(C(F)(F)F)cc2Cl)cc(OC)c1O	-14	-1%	4	-5.9	-15
Cc1c(NCc2nc3ccccc3[nH]2)c(=O)n(-c2ccccc2)n1C	-42	-2%	-1	-3.3	-3
COC(=O)c1ccc(CNCC(O)COc2ccc(-c3ccccc3)cc2)cc1 (stereo unspecified)	.	.	9	0.3	.
NC(=O)c1ccc(NC(=O)Nc2ccc3c(c2)OCO3)cc1	.	.	-10	0.5	.
Cn1c(CNC(=O)c2ccc(F)cc2)nc2ccccc21	-24	-1%	-4	-0.4	-1	Arbovirus anti repeat=-4
COCc1nnc(NC(=O)CSc2ccc(C)cc2)s1	-1	-4%	0	-1.1	0
COc1ccc(OC)c(CN2CCN(C(=O)c3ccco3)CC2)c1	.	.	0	0.8	.
CC(=NCc1ccco1)c1c(O)n(C)c(=O)n(C)c1=O	-36	-6%	-10	.	-23
O=C(NC1CCCCNC1=O)c1ccco1 (stereo unspecified)	.	.	-2	0.1	.
CCCCN(C(=O)C1CC(=O)N(c2ccc(OC)cc2OC)C1)c1c(N)n(CC(C)C)c(=O)[nH]c1=O (stereo unspecified)	.	.	-23	-1.7	.
O=S(=O)(Nc1c(S(=O)(=O)c2ccccc2)c2nc3ccccc3nc2n1C1CCCCC1)c1ccccc1	31	.	-2	-21	-7
CCOc1cc(/C=N/NC(=O)Cn2nc([N+](=O)[O-])cc2C)cc(Br)c1OCc1ccccc1C	-15	53%	89	-1.4	-37
CCOC(=O)c1sc(NC(C)=O)nc1C	-21	-7%	0	.	-8
CCOC(=O)Cc1csc(NC(=S)NC(=O)c2cccc([N+](=O)[O-])c2)n1	-20	-2%	2	-0.1	-4
COc1ccc(CNC(=O)Cn2nnc(-c3ccc(NC(=O)C4CCCCC4)cc3)n2)cc1	-31	-4%	7	-1.3	-24
N#Cc1c2n(c(=S)n(-c3ccccc3[N+](=O)[O-])c1=O)CCCCC2	.	5%	-11	-3.5	4
Cc1ccsc1C(=O)NCC(=O)OCc1ccccc1	.	.	-17	-0.9	.
CCOc1ccc(N2C(=O)Nc3ccccc3C2(O)C(=O)NCc2ccc(C)cc2)cc1 (stereo unspecified)	.	-6%	-3	3.2	-3
Cc1ccnc(Nc2nc(-c3sc(C)nc3C)cs2)c1	.	.	14	10.0	.
CN(Cc1cccs1)C(=O)c1ccc(S(=O)(=O)NCc2ccco2)cc1	.	-3%	-14	-3.3	.
N#CC(C#N)=C1c2cc(S(N)(=O)=O)ccc2-c2ccc(S(N)(=O)=O)cc21	.	4%	.	.	5
COc1cc2nc(CN3CCN(S(=O)(=O)c4ccc(C)c(C)c4)CC3)[nH]c(=O)c2cc1OC	.	0%	-4	-1.9	-8

Screens from PubChem BioAssay.
